TAR Tat displ: HIV-1 TAR-Tat binding disruption. z-score (concentration not given with the values). hit rate 0.6% among 100,000. HIV-1 TAR RNA, Tat peptide displacement FRET; hits give high values. AID 1259389;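 note: score is relative to mean and SD of negative controls; some compounds called inactive have numbers as strong as hits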
CDC25B-CDK2 inh: human CDC25B-CDK2/CyclinA binding inhibition | P30305+P24941 | HTRF CDC25B-CDK2/CyclinA binding, anti-His/anti-Flag; hits give high values | z-score (test concentration not listed) | hit rate 0.72% among 94,000 | AID 1259370;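 note: score is relative to mean and SD of negative controls; strong numbers were not always called active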
* hit, by the source's call; . = not tested or not shown.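 Rule for the calls: active = z-score from 3 up in half or more of its runs; inactive = the rest.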

#1 CC(C)CCNC(=O)C1(C)CCC(=O)N1Cc1cccs1 (centres undefined)
#2 COCCNC(=O)c1cc(-c2cccs2)on1
#3 C=CCOc1ccc(C2c3c(oc4ccccc4c3=O)C(=O)N2c2nnc(C)s2)cc1 (centres undefined)
#4 CCc1nnc(NC(=O)Cc2coc3c(C)c(C)ccc23)s1
#5 O=C(NCc1cccn1Cc1ccc(F)cc1)Nc1ccc(Br)cc1F
#6 COc1cc(OC)c(NC(=O)c2nccnc2CO)cc1Cl
#7 Cc1ccc(C(=O)CC2(O)C(=O)Nc3ccc(F)cc32)cc1C (centres undefined)
#8 O=S(=O)(Nc1ccc(S(=O)(=O)Nc2ccccc2C(F)(F)F)cc1)c1ccc(Cl)cc1
#9 COc1ccc(OC)c(C2CC(c3ccc(Br)cc3)Nc3nnnn32)c1 (centres undefined)
#10 Cc1ccc(S(=O)(=O)[C@H]2CS(=O)(=O)C[C@@H]2NCCc2c[nH]c3ccccc23)cc1
compound no.	1	2	3	4	5	6	7	8	9	10
TAR Tat displ	-0.52	-0.87	0.44	-0.39	-1.53	0.73	1.77	.	2.05	-0.24
CDC25B-CDK2 inh	0.88	-0.74	-0.12	-1.92	.	-1.84	.	-0.49	.	-0.71

#11 Brc1ccc(-c2cnc3ccccc3n2)cc1
#12 Cc1ccc(NS(=O)(=O)c2cc3c4c(c2)CCN4C(=O)CC3)c(C)c1
#13 Cc1ccc(CNc2nc(-c3ccc(Cl)cc3)nc3ccccc23)o1
#14 Cc1ccc(Cl)cc1NS(=O)(=O)c1cc(-c2ccc(=O)[nH]n2)cc(C)c1C
#15 Fc1cccc(CSc2nc3ccncc3[nH]2)c1
#16 O=C(Cn1c(=O)sc2ccccc21)NCCC1=CCCCC1
#17 O=C(c1ccc2c(c1)N(Cc1ccccc1)CCS2)N1CCN(Cc2ccccc2)CC1
#18 CCC(NC(=O)Nc1cc(C)cc(C)c1)c1c(-n2cccc2)sc2c1CCN(CC)C2 (centres undefined)
#19 CC1(C(=O)NC2CCCCC2)Cn2c(ccc2-c2ccco2)C(=O)N1CCCN1CCOCC1 (centres undefined)
#20 Cc1cccc(-n2ncc3c(N(C)Cc4ccccc4)ncnc32)c1
compound no.	11	12	13	14	15	16	17	18	19	20
TAR Tat displ	0.1	1.67	0.69	1.69	2.34	0.76	0.92	-6.32	-0.31	.
CDC25B-CDK2 inh	-0.67	.	.	.	.	-0.12	-0.79	.	.	-2.27

Pulled one by one from the list above, two records:
#18 CCC(NC(=O)Nc1cc(C)cc(C)c1)c1c(-n2cccc2)sc2c1CCN(CC)C2 (centres undefined)
#3 C=CCOc1ccc(C2c3c(oc4ccccc4c3=O)C(=O)N2c2nnc(C)s2)cc1 (centres undefined)
compound no.	18	3
TAR Tat displ	-6.32	0.44
CDC25B-CDK2 inh	.	-0.12

Given with two lines to a compound: part of the list above
The line under a structure holds: TAR Tat displ | CDC25B-CDK2 inh
8) O=S(=O)(Nc1ccc(S(=O)(=O)Nc2ccccc2C(F)(F)F)cc1)c1ccc(Cl)cc1
    . | -0.49
9) COc1ccc(OC)c(C2CC(c3ccc(Br)cc3)Nc3nnnn32)c1 (centres undefined)
    2.05 | .
10) Cc1ccc(S(=O)(=O)[C@H]2CS(=O)(=O)C[C@@H]2NCCc2c[nH]c3ccccc23)cc1
    -0.24 | -0.71
11) Brc1ccc(-c2cnc3ccccc3n2)cc1
    0.1 | -0.67
12) Cc1ccc(NS(=O)(=O)c2cc3c4c(c2)CCN4C(=O)CC3)c(C)c1
    1.67 | .
13) Cc1ccc(CNc2nc(-c3ccc(Cl)cc3)nc3ccccc23)o1
    0.69 | .
14) Cc1ccc(Cl)cc1NS(=O)(=O)c1cc(-c2ccc(=O)[nH]n2)cc(C)c1C
    1.69 | .
15) Fc1cccc(CSc2nc3ccncc3[nH]2)c1
    2.34 | .
16) O=C(Cn1c(=O)sc2ccccc21)NCCC1=CCCCC1
    0.76 | -0.12
17) O=C(c1ccc2c(c1)N(Cc1ccccc1)CCS2)N1CCN(Cc2ccccc2)CC1
    0.92 | -0.79
18) CCC(NC(=O)Nc1cc(C)cc(C)c1)c1c(-n2cccc2)sc2c1CCN(CC)C2 (centres undefined)
    -6.32 | .
19) CC1(C(=O)NC2CCCCC2)Cn2c(ccc2-c2ccco2)C(=O)N1CCCN1CCOCC1 (centres undefined)
    -0.31 | .
20) Cc1cccc(-n2ncc3c(N(C)Cc4ccccc4)ncnc32)c1
    . | -2.27

(further entries)
#21 CCCC(O)(CCC)C1CCN2Cc3ccccc3N=C12 (centres undefined)
#22 COc1ccc(NS(=O)(=O)c2csc(C(N)=O)c2)cc1Cl
#23 O=C(NCc1ccc2c(c1)OCO2)c1cc2c(s1)-c1ccccc1SC2
#24 CSc1ccc(CNC(=O)c2c(C)noc2C)s1
#25 Cc1ccc(S(=O)(=O)NC(=O)OCC2CN(Cc3ccccc3)CCO2)cc1 (centres undefined)
#26 O=c1c(NCc2ccco2)nccn1-c1ccc(F)cc1
#27 O=C(OC1=CN(Cc2ccccc2)S(=O)(=O)c2ccccc21)c1ccccc1
#28 CN(C(=O)c1cc2ccc3cccnc3c2[nH]1)c1ccccc1
#29 CCc1nnc(NC2=NS(=O)(=O)C(c3ccccc3)=C2C)s1
#30 Cn1c(=O)n(Cc2ccccc2)c(=O)c2c1[nH]c(=O)n2C
compound no.	21	22	23	24	25	26	27	28	29	30
TAR Tat displ	0.74	2.04	0.67	.	.	1.58	0.6	0.29	-0.59	0.33
CDC25B-CDK2 inh	.	.	-3.02	-1.88	-3.13	.	0.42	.	-2.39	0.98

#31 CCCS(=O)(=O)c1ncc(Cl)c(C(=O)Nc2nnc(C)s2)n1
#32 CC(=O)Nc1ccc(NS(=O)(=O)c2cc(Br)cc3c2N(C(=O)C2CC2)CC3)cc1
#33 CCc1nnc(NS(=O)(=O)c2ccc(OC(F)(F)F)cc2)s1
#34 CC1=NNC(=O)C1Cc1ccc(F)cc1 (centres undefined)
#35 CSc1ccc(CCNC(=O)Nc2ccc3snnc3c2)cc1
#36 CC1=C(C(=O)OCCOc2ccccc2)C(c2ccc(Br)cc2)C2=C(CCCC2=O)N1 (centres undefined)
#37 c1ccc(Oc2ncnc3c2oc2ccccc23)cc1
#38 CC(=O)NC1CCN(C(=S)Nc2cc(Cl)ccc2Cl)CC1
#39 C=CCn1c(SCC(=O)O)nnc1-c1ccc(OC)c(OC)c1
#40 O=C(C1CCCN(S(=O)(=O)c2cccc3nonc23)C1)N1CCc2ccccc2C1 (centres undefined)
compound no.	31	32	33	34	35	36	37	38	39	40
TAR Tat displ	2.27	.	.	.	2.09	1.63	2.08	.	1.8	.
CDC25B-CDK2 inh	-0.16	0.73	-0.68	-1.19	0.6	-1.62	.	-2.06	-1.46	-2.23

#41 C=CCc1ccccc1OC(C)/C(N)=N/O (centres undefined)
#42 Cc1cc2c3c([nH]c2cc1S(=O)(=O)NCCN(Cc1ccco1)C1CCCC1)CCCC3=O
#43 C#CCOc1ccc(C2CC(=O)Nc3c2cnn3-c2nc3ccccc3s2)cc1 (centres undefined)
#44 CCCCN1C(=O)NC2NC(=O)NC21 (centres undefined)
#45 O=C(COCc1cc(-c2ccc3c(c2)OCO3)on1)NCCCN1CCCC1
#46 COc1ccc(S(=O)(=O)n2nc(C)c(Sc3ccccc3)c2C)cc1
#47 Nc1ncc(Br)cc1S(=O)(=O)Nc1ccc(Cl)cc1F
#48 Cn1c(O)c(C2=Nc3ccccc3SC(c3cccc(O)c3)C2)c(=O)n(C)c1=O (centres undefined)
#49 O=C(c1cc2nc(-c3cccs3)cc(C(F)(F)F)n2n1)N1CCCC1c1cccs1 (centres undefined)
#50 Cc1ccc2[nH]c3c(c2c1)CCCC3N (centres undefined)
compound no.	41	42	43	44	45	46	47	48	49	50
TAR Tat displ	.	0.74	1.84	1.08	1.31	-0.4	1.95	2.5	0	.
CDC25B-CDK2 inh	-4.22	.	.	-0.72	.	-0.48	-1.91	0.32	-0.16	-2.76

#51 O=C(CSc1ccsc1[N+](=O)[O-])N1CCOCC1
#52 Cc1c(NC(=O)NCc2cccnc2)sc2nc3n(c(=O)c12)CCC(C)CC3 (centres undefined)
#53 O=c1oc(-c2cccs2)nc2sc3c(c12)CCCC3
#54 O=C1COc2ccc(S(=O)(=O)NCCN3CCN(c4cccc(Cl)c4)CC3)cc2N1
#55 Cc1noc(-c2ccc(-c3noc(-c4ccc(Cl)cc4)n3)cc2)n1
#56 CCCOc1ccc(Br)cc1C1C(C(=O)OCc2ccccc2)=C(C)Nc2nnnn21 (centres undefined)
#57 Cn1c(=O)c2c(nc(CN3CCc4ccccc4C3)n2Cc2cccc(Cl)c2)n(C)c1=O
#58 Cc1cc2oc3c(c(=O)c2cc1C)C(c1cccc(Cl)c1)N(CCCN1CCOCC1)C3=O (centres undefined)
#59 O=C(NCc1ccccc1)N1CCSc2ccccc21
#60 O=C(NCc1ccc(-c2cccs2)cc1)c1cnc2ccccc2n1
compound no.	51	52	53	54	55	56	57	58	59	60
TAR Tat displ	-0.06	1.12	0.45	2.71	1.3	0.58	-1.63	-0.71	1.34	.
CDC25B-CDK2 inh	-0.55	-0.86	-1.07	.	.	1.96	-0.83	-1.88	.	-3.64

#61 C=CC(=O)NC(O)C(O)NC(=O)C=C (centres undefined)
#62 Cc1cc(=O)oc(C)c1C(=O)NC1CCCc2ccccc21 (centres undefined)
#63 O=C(Cn1ncc2ccsc2c1=O)NCCN1CCOCC1
#64 CCCCCCCCCn1c(SC(C)C(=O)O)nc2c1c(=O)[nH]c(=O)n2C (centres undefined)
#65 Cc1cc(=O)oc(C)c1C(=O)NCCN1CCOCC1
#66 Cc1ccc2c(c1)sc1nc(C)c(S(=O)(=O)Nc3ccc(Br)cc3)c(=O)n12
#67 Cc1ccc(C)c(OC2=NS(=O)(=O)c3ccccc32)c1
#68 COC(=O)c1cccc(NC(=O)c2ccccc2)c1
#69 COc1ccc2[nH]c3c(c2c1)CCNC3c1ccc(F)cc1 (centres undefined)
#70 CCCC[C@@H](C=O)NC(=O)[C@H](CC(C)C)NC(=O)[C@H](CC(C)C)NC(C)=O
compound no.	61	62	63	64	65	66	67	68	69	70
TAR Tat displ	.	.	-0.68	.	.	0.5	-0.68	.	0.4	2.03
CDC25B-CDK2 inh	-1.96	-1.23	-0.4	-0.42	-3.45	.	1.15	-1.54	-1.1	.

#71 O=C(Oc1ccc2c3c(c(=O)oc2c1)CCC3)c1cccs1
#72 O=C(Cn1cnc(S(=O)(=O)N2CCOCC2)c1)Nc1cc(F)ccc1F
#73 Cc1csc(NC(=O)C2CCN(S(=O)(=O)c3c(C)nn(CC(=O)N4CCCC4)c3C)CC2)n1
#74 Oc1ccc2ncccc2c1C(Nc1ccccn1)c1cccc(Br)c1 (centres undefined)
#75 Nc1ncc(Br)cc1S(=O)(=O)NCc1ccc(F)cc1
#76 COc1ccc2nc(NC(=O)Cn3ncc4c([nH]c5ccccc54)c3=O)sc2c1
#77 CCN1C(C(=O)OC)=C(O)c2ccccc2S1(=O)=O
#78 O=C(CCn1c(=O)sc2ccccc21)NCCCn1ccnc1
#79 C=CCC1(O)CC(c2ccccc2)NC(c2ccccc2)C1CC (centres undefined)
#80 CCn1c(C(=O)O)c(N2CCCC2=O)c2cc(F)ccc21
compound no.	71	72	73	74	75	76	77	78	79	80
TAR Tat displ	.	0.02	0.77	10.7	0.49	1.86	-0.9	.	0.54	0.01
CDC25B-CDK2 inh	-0.72	.	.	-0.25	-2.11	.	-1.35	0.09	-1.08	1.58

#81 COC(=O)c1c(SCc2cccc(F)c2)[nH]c2ccccc2c1=O
#82 Cc1cc(=O)oc2cc(OCC3CC(c4ccccc4)=NO3)ccc12 (centres undefined)
#83 CCC(CCC(C)C1CCC2C3CC=C4C[C@@H](OC(C)=O)CC[C@]4(C)C3CC[C@]12C)C(C)C (some centres undefined)
#84 O=C(CSc1ncnc2c1sc1cccc(F)c12)NCCN1CCCCC1
#85 CCOCCOC(=O)C1=C(C)NC2=C(C(=O)CC(C)(C)C2)C1c1ccc(OC(C)=O)cc1 (centres undefined)
#86 CCc1nnc(SCC(=O)N(CC)c2ccccc2)c2cc3oc(C)cc3n12
#87 CCN(CC)S(=O)(=O)c1ccc2c(c1)C(=O)c1cc(S(=O)(=O)N(CC)CC)ccc1-2
#88 CC(C)c1nn2c(=O)cc(COC(=O)CNC(=O)c3ccco3)nc2s1
#89 CC(C)c1ccc(NC(=O)CSc2ncc3c(n2)CC(C)(C)CC3=O)cc1
#90 COc1ccccc1CNc1cc(-c2ccccc2)nc2nncn12
compound no.	81	82	83	84	85	86	87	88	89	90
TAR Tat displ	0.63	.	3.84	-1.02	0.43	3.04	1.38	2.18	.	-1.1
CDC25B-CDK2 inh	.	-0.99	.	.	-1.3	.	-0.95	.	-0.26	2.84

#91 CC1(C)CCC(=O)N(c2ccc(N3CCOCC3)cc2)C1=O
#92 CCN1C(=O)C(=O)c2cc(Br)ccc21
#93 Cc1ccc(C)c(S(=O)(=O)NCCn2nc(-c3ccc(Cl)cc3)ccc2=O)c1
#94 O=C(CN1C(=O)CCc2cc(Br)ccc21)N1CCc2ccccc2C1
#95 CCOCCn1c(CN2CCC(C)CC2)nc2c1c(=O)n(C)c(=O)n2C
#96 CCOCCc1nn2c(=O)cc(COC(=O)COc3ccc(Cl)cc3)nc2s1
#97 Cc1ccc(CNS(=O)(=O)c2ccc3[nH]c4c(c3c2)CCCCC4)cc1
#98 COc1ccc(Br)cc1C1CC(=O)Nc2c1c(C)nn2-c1nc2ccccc2o1 (centres undefined)
compound no.	91	92	93	94	95	96	97	98
TAR Tat displ	.	-0.28	0.38	0.78	.	-0.4	2.97	0.17
CDC25B-CDK2 inh	-1.7	-2.8	.	.	-1.89	.	.	.
